# Compound activity deposited in PubChem BioAssay by several laboratories.
# UCH37 inh = inhibitors of human deubiquitinating enzyme UCH37. Q9Y5K5. purified proteasome/UCH37, Ub-AMC cleavage fluorescence. inhibition, % (test concentration not listed). hit rate 0.33% among 330,000;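 active = mean of two replicates above 20%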;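 note: 0% = compound-free wells with enzyme and 100% = wells lacking proteasome; stock transfer was 100 nL into about 20 µL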
# Target sequence (Q9Y5K5 whole entry, looked up): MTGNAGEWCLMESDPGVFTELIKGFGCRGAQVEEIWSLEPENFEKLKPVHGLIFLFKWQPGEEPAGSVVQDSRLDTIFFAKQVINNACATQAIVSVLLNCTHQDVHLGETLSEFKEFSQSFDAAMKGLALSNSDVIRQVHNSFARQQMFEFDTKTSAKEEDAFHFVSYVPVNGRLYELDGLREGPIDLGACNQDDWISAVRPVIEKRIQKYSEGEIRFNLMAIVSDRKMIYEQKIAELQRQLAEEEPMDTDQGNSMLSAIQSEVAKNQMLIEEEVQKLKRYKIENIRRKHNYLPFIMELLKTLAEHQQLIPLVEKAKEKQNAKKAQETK
#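 Material: Human UCH37 enzyme supplied as purified proteasome complex | Schedule: 30 min preincubation with enzyme, 25 min cleavage at room temperature | Detection: AMC fluorescence 355/460 nm | Measure: % inhibition of Ub-AMC cleavage fluorescence | Controls: Wells without proteasome as full block, compound-free enzyme plus substrate as uninhibited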
# FGF22 binding = binders of recombinant human FGF22 by thermal shift; calls only at 9.99 µM; SYPRO orange fluorescence; percent of sucrose octasulfate shift, DMSO zero; hit rate 1.5% among 340,000; AID 651658;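 active = melting point raised past a set limit in the mean and every replicate; inconclusive = no clear call; three in four hits are not shown here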
# Target sequence (Q9HCT0 whole entry, looked up): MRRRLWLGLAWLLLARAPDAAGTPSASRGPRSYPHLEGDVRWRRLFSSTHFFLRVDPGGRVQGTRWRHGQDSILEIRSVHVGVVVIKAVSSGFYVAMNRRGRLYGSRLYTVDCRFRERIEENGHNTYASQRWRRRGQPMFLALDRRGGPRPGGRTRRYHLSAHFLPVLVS
# Ecoli growth = E. coli growth inhibition; Escherichia coli growth, OD600, 23 h; active compounds read low; OD600 absorbance (concentration not given with the values); hit rate 0.21% among 330,000;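 active = OD600 absorbance below the run mean of sample wells minus 3.6 SD, in any replicate, cut at about 0.56 in these data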;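 note: stock transfer was 300 nL into about 60 µL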
# AF4-AF9 inh = MLL-AF4/AF9 protein interaction inhibition; P42568; AlphaScreen, biotin-AF4 peptide binding to FLAG-AF9; inhibition, % at 10 µM; hit rate 0.47% among 350,000;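 active = every replicate reaching a set inhibition limit, whatever the replicate mean, cut at about 25% in these data; inconclusive = mean inhibition reaches that limit but some replicates miss it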;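 note: 0% = plate neutral control median and 100% = total signal loss; the record names both 10 and 1 µM as test concentration; the first replicate is given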
# Target sequence (P42568 whole entry, looked up): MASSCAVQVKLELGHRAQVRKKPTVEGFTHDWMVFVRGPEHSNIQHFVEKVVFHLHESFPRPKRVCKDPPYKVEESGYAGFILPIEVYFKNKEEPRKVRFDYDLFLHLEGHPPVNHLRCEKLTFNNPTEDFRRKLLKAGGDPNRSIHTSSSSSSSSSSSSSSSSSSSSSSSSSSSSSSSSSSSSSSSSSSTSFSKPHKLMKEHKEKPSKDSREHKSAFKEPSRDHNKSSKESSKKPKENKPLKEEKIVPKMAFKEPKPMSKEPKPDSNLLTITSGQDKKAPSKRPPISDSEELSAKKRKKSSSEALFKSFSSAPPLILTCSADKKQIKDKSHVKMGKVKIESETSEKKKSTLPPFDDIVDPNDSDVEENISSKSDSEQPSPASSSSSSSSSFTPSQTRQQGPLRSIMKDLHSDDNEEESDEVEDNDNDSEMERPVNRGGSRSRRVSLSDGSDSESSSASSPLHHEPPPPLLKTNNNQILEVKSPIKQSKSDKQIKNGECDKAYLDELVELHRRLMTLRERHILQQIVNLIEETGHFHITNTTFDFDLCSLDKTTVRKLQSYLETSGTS
# RanGTP-Imp inh = inhibitors of RanGTP-importin-beta interaction, primary screen, biochemical, FRET, CFP-Ran, YFP-importin-beta, homogeneous | inhibition, % (test concentration not listed) | hit rate 1.1% among 300,000 | cell-free CFP-Ran/YFP-importin-beta FRET ratio;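 active = most replicates above 15%; inconclusive = exactly half above 15%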;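 note: 0% = DMSO wells and 100% = Ran loaded with GDP instead of GTP; wells of about 40 µL received 100 nL stock; the first replicate is given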
# HNF4A DNA FP = change in binding of human HNF4 alpha to DNA. hit rate 0.3% among 360,000. P41235. AID 1224865. HNF4a-FITC DNA binding, fluorescence polarization, 1 h. activity change, % at 10 µM; in the data active = activity change above about 30%, passing the limit was not always enough;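 note: controls were the assay level and a saturating level of protein; the project sought stronger binding though the title names inhibitors; some compounds called inactive have numbers as strong as hits; positive values seem to mean higher polarization but the record does not say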
# Vif TR-FRET = inhibitors of Vif binding to APOBEC3G peptide, primary screen, biochemical, TR-FRET, GST-Vif 1-94, biotin-A3G peptide, dose response retest (AID 1117319). TR-FRET GST-Vif / biotin-A3G peptide binding; higher % means a stronger effect; test concentration not given here; strong numbers were not always called active. inhibition, %, or IC50 in µM where a hit was titrated. hit rate 0.57% among 260,000;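 active = above the screen mean plus three standard deviations and confirmed in dose response; inconclusive = results disagree or hit not tested in dose response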;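 note: Vif residues 1-94 fused to GST binding biotinylated APOBEC3G peptide 110-148; 0% = full assay without inhibitor and 100% = GST in place of GST-Vif; retest series ran down from 100 µM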
# An asterisk follows results filed as active; i = inactive; u = inconclusive; x = no result given. Only part of the results is shown (hit frequency here may not be typical).
structure	UCH37 inh	FGF22 binding	Ecoli growth	AF4-AF9 inh	RanGTP-Imp inh	HNF4A DNA FP	Vif TR-FRET
Cc1oc(-c2ccc(Cl)cc2)nc1CN1CCC(C(=O)NCc2ccco2)CC1	3.1	x	0.68	x	6.8	-0.9	2%
CCC(=O)Nc1ccc(Cl)c(NC(=S)NC(=O)c2cc3ccccc3o2)c1	3.1	i	0.71	-3.5	-0.5	3.9	x
O=C(CSc1nc2ccccc2c(=O)n1CC1CCCO1)NCCc1ccccc1 (centres undefined)	4.4	i	0.68	1.8	5.0	8.4	x
CCCn1c(C)cc(C(=O)COC(=O)c2nccnc2N)c1C	-21	i	0.65	0.3	25*	-1.9	9%
CCCCNC(=O)Nc1ccccc1C(=O)Nc1ccc(OC)cc1	-1.6	x	0.76	x	-3.2	0.6	1%
O=C(/C=C/c1c(Cl)cccc1Cl)NCc1ccco1	2.2	x	0.72	x	2.4	3.0	1%
COc1ccc(OC)c(C(=O)c2ccc([N+](=O)[O-])cc2)c1	-0.5	i	0.67	13	x	1.3	0%
COc1ccc(OC)c(S(=O)(=O)Nc2ccccc2C)c1	0.6	i	0.72	-39	-0.9	0.7	3%
CCCCC1C2=C(CCCC2=O)OC2=C1C(=O)CCC2	-0.7	x	0.68	x	-13	0.7	x
Cc1cccc(C(=O)NC2C(=O)NNC2c2ccc(Cl)cc2)c1 (centres undefined)	1.1	i	x	-2.4	6.3	3.3	x
COCCNC(=O)C1CCN(S(=O)(=O)c2ccc3c(c2)OCCO3)CC1	0.8	i	0.67	u	4.7	3.4	0%
CC12CCC3C(CCC4CC(O)CCC43C)C1CC(O)C2 (centres undefined)	-0.4	i	0.67	-5.7	x	1.0	-3%
O=C(O)C1CCN(C(=O)COc2ccc3c(c2)oc(=O)c2ccccc23)CC1	-419	i	0.72	-1.9	0.3	-2.0	x
COC(=O)c1c(NC(=O)CN2C(=O)c3ccccc3C2=O)sc(Cc2ccc3c(c2)OCO3)c1C	3.3	i	0.69	7.2	-3.2	5.8	u
COc1cc(CNCc2c[nH]c3ccccc23)cc(OC)c1	3.8	i	0.61	5.9	u	4.2	-8%
CCCN1CCC(NC(=O)C2CC=CCC2C(=O)O)CC1 (centres undefined)	-0.8	i	0.7	-1.4	-1.8	-0.1	4%
CCOC(=O)c1c(C)n(CCO)c2ccc(O)cc12	3.3	x	0.71	x	-0.8	2.3	-6%
C/C(=N\NC(=O)C1CCCN(S(=O)(=O)c2ccccc2)C1)c1ccncc1 (centres undefined)	x	x	x	x	-0.2	-1.6	2%
O=C(O)c1nn(-c2ccccc2)ccc1=O	0.6	x	0.68	x	5.4	1.3	u
O=c1ccc(-c2ccc(S(=O)(=O)N3CCCCC3)o2)n[nH]1	-4.8	i	0.67	-1.3	3.5	0.1	-7%
Cc1nn(-c2cc(N3CCOCC3)ccc2N)c(=O)c2ccccc12	2.0	x	0.68	x	3.6	5.2	22%
CCc1cccc(C)c1NC(=O)Cn1c(NCCO)nc2ccccc21	-0.4	i	0.64	4.4	9.4	1.4	x
CCOc1ccc(Cl)cc1-c1cc(C(=O)NCCc2ccncc2)[nH]n1	x	i	x	5.4	x	1.9	x
CN(C)S(=O)(=O)c1cccc(C(=O)OCC(=O)c2c(N)n(C)c(=O)n(C)c2=O)c1	0.5	i	0.69	0.0	-1.2	-1.4	2%
CCN(CC)S(=O)(=O)c1ccc(N2CCN(c3ccccc3O)CC2)nc1	-0.3	i	0.7	1.7	0.3	4.6	x

# The final 2 entries of the part above open the next one:
structure	UCH37 inh	FGF22 binding	Ecoli growth	AF4-AF9 inh	RanGTP-Imp inh	HNF4A DNA FP	Vif TR-FRET
CN(C)S(=O)(=O)c1cccc(C(=O)OCC(=O)c2c(N)n(C)c(=O)n(C)c2=O)c1	0.5	i	0.69	0.0	-1.2	-1.4	2%
CCN(CC)S(=O)(=O)c1ccc(N2CCN(c3ccccc3O)CC2)nc1	-0.3	i	0.7	1.7	0.3	4.6	x
Cc1ccc(NC(=O)CN2C(=O)N/C(=C\c3ccco3)C2=O)cc1	2.3	i	x	-1.4	x	4.4	x
O=C1N(Cc2cccnc2)C[C@@H]2C[C@@H](c3ccccc3C(F)(F)F)N3CCC[C@@]123	0.5	i	0.71	6.7	2.4	1.7	u
CCNc1ccc(C(=O)OCC(=O)NCc2ccc(C)cc2)cc1[N+](=O)[O-]	-0.8	x	0.71	x	-5.8	-3.4	14%
O=C(c1ccccc1)N1N=C(c2cccs2)CC1c1ccccc1O (centres undefined)	1.9	i	0.64	6.8	-1.0	-2.9	9%
Cc1ccc(Cn2cccc(-c3nc4ccccc4s3)c2=O)cc1	i	x	0.67	x	u	6.0	-12%
CCCc1nnc(SCCSc2nnc(CCC)n2N)n1N	-2.4	x	0.71	x	-1.2	4.0	-1%
CCOc1ccccc1CN1CCN(Cc2nc3c(s2)CCCC3)CC1CCO (centres undefined)	1.5	i	0.68	3.2	-2.6	0.2	2%
Cc1c(C(=O)c2ccc3c(c2)OCO3)ccc2c1OCO2	x	i	x	-1.2	x	-0.9	-10%
Cc1nc2ccc(S(=O)(=O)NCC(=O)O)cc2s1	0.6	x	0.74	x	0.0	0.0	3%
Cc1ccsc1C(=O)OCC(=O)NCCCc1ccccc1	6.3	i	0.66	-2.5	-3.7	3.0	2%
CCOC(=O)N1CCC(NS(=O)(=O)c2cc(C(=O)OC)n(C)c2)CC1	1.5	i	0.66	0.3	0.8	0.0	x
CC(C(=O)Nc1ccc(O)c(C(=O)O)c1)N1C(=O)/C(=C/c2cccs2)SC1=S (centres undefined)	11	i	0.71	-15	1.4	0.5	2%
CCCCNCCCOc1cc(Cl)ccc1Cl	3.3	x	0.64	x	0.6	-0.8	1%
O=C(O)C1=NN(c2cc(Cl)c(S(=O)(=O)O)cc2Cl)C(=O)C1	3.2	i	0.68	-4.0	x	-40	86µM*
O=[N+]([O-])c1nn(-c2ccccc2)n(O)c1=NC1CCN(Cc2ccccc2)CC1	4.3	x	0.59	-0.3	-2.7	0.6	-1%
COc1ccccc1/C=N/NC(=O)CSc1ccc2ccccc2n1	x	i	x	2.8	3.7	1.2	x
CC(=O)Nc1ccc(S(=O)(=O)NC2(C(F)(F)F)C(=O)Nc3c2c(=O)[nH]c(=O)n3Cc2ccco2)cc1 (centres undefined)	0.0	i	0.71	-15	0.7	-6.6	x
COC(=O)c1ccc(C)c(NC(=O)Cn2cnc3ccccc3c2=O)c1	0.9	x	0.7	x	-3.9	-0.7	5%
CCOC(=O)NC(=O)CSc1nnnn1-c1ccc(C)cc1	2.2	x	0.7	x	0.4	-0.1	0%
CCOC(=O)c1sc(NC(=O)c2cccc(S(=O)(=O)N(CC)CC)c2)cc1C	-146	x	0.73	x	u	-2.1	0%
O=C(NCc1ccccc1)C1CCC(CNc2c(N3CCCCC3)c(=O)c2=O)CC1 (centres undefined)	4.1	i	0.69	-7.7	0.1	5.6	-7%
O=C(Nc1ccc(Br)cc1)c1ccc(N2C(=O)C3CC=CCC3C2=O)cc1 (centres undefined)	0.8	x	0.63	x	7.1	-0.6	x
Cc1cc(OCCn2cnc3ccccc3c2=O)cc(C(C)C)c1	0.1	x	0.67	x	-3.9	-1.3	x
Cc1ccc(Cl)c(OCCN2CCc3ccccc3C2)c1	0.9	x	0.6	5.4	2.2	1.3	3%
CC(=O)Nc1ccc(C(=O)N/N=C/C2CC3C=CC2C3)cc1 (centres undefined)	x	i	x	-1.3	-3.9	4.1	-3%
N/C(=N\OC(=O)CCCCCN1C(=O)c2ccccc2C1=O)c1ccccc1	1.7	x	0.71	x	-9.6	-0.3	2%
Cc1csc(NC(=O)C2CCCN2C(=O)OCC(C)C)n1 (centres undefined)	-4.7	x	0.76	x	-2.2	-6.6	-1%
Clc1cccc(N2CCN(c3nnnn3-c3ccccc3)CC2)c1	1.8	x	0.67	-8.2	5.6	-1.9	12%
N#Cc1ccccc1Sc1ccccc1C(=O)OCc1nnc(-c2ccccc2)o1	2.4	x	0.79	x	-3.0	-0.4	-2%
Cc1ccc(CC(=O)Nc2ccc(S(=O)(=O)N3CCOCC3)cc2)cc1C	0.5	i	0.65	0.4	x	-1.9	1%
CC(C)c1ccc(/C=C/C(=O)Nc2nncs2)cc1	2.5	i	0.7	-0.5	6.6	-3.4	1%
Cc1ccc(CNC(=O)Cn2cc(C(F)(F)F)ccc2=O)cc1	-1.1	i	0.7	1.8	-0.3	3.9	-6%
O=S1(=O)CC(N2CCCC2)CN1CCc1ccccc1 (centres undefined)	x	i	x	-1.8	x	-0.1	x
Cc1ccccc1C(=O)NCCNC(=O)c1ccccn1	0.8	i	0.71	1.2	-0.2	3.5	x
O=C(O)c1ccccc1NS(=O)(=O)c1cccc2nsnc12	3.8	i	0.71	-9.8	5.5	-1.9	x
Cc1ccc(OCC(=O)N/N=C/c2c[nH]c3ccccc23)c([N+](=O)[O-])c1	x	x	x	x	2.2	-1.0	12%
CCOc1ccc(CNC(=O)CCC(=O)n2nc(C)c3ccccc32)cc1	1.7	i	0.72	-2.4	1.0	-2.0	2%
COc1ccc(-c2nc(C#N)c(N3CCC(C(N)=O)CC3)o2)cc1	-169	x	0.79	x	u	-1.5	8%
CCOC(=O)C1CCCN(C2=NC(=O)/C(=C/c3ccc(OC)cc3OC)S2)C1 (centres undefined)	8.0	i	0.67	6.4	-1.5	4.6	3%
CN(C(=O)CCS(=O)(=O)c1ccc2c(c1)oc(=O)n2C)C1CCCCC1	0.4	i	0.66	-4.6	5.6	2.4	x
O=C(COC(=O)/C=C/c1ccccc1)NCC1CCCO1 (centres undefined)	-0.4	i	0.72	0.6	4.0	-3.1	5%
Nc1ccc[n+](Cc2ccccn2)c1	-51	x	0.79	x	2.4	0.3	0%
O=[N+]([O-])c1ccc(/C=N/NC(=S)Nc2ccccc2F)o1	x	x	x	x	-1.5	3.8	u
O=C(CN1CCOCC1)Nc1nc2ccc([N+](=O)[O-])cc2s1	12	i	0.62	0.8	-2.8	-0.2	-1%
OCCCNc1nc(-c2ccc(Br)cc2)nnc1-c1ccc(Cl)cc1	1.0	x	0.68	x	0.0	0.9	22%
Cc1ccc(S(=O)(=O)Cn2nnnc2C(CC(C)C)N2CCN(C(=O)c3ccco3)CC2)cc1 (centres undefined)	-1.4	x	0.7	x	-5.3	1.7	28%
CC(C)(CC(=O)O)CC(=O)Nc1ccc2c(c1)ncn2CCc1ccccc1	6.0	i	0.66	-3.4	1.9	0.7	3%
CCc1ccccc1C1=CC(=O)C[C@H](c2ccc(OC)cc2)C1	2.7	i	x	-0.7	x	0.7	x
C=CC[C@H](CC(=O)NCCO)C(=O)NC[C@H](OC(=O)[C@@H](CC=C)Cc1ccc(F)cc1)c1ccccc1	0.9	i	x	x	x	-1.7	x
COc1ccc(N2CC(C(=O)Nc3c4c(nn3-c3ccc(OC)cc3)CS(=O)(=O)C4)CC2=O)cc1 (centres undefined)	4.0	i	0.69	-1.2	-1.8	-1.2	x
CC(=O)C1=C(O)C(=O)N(c2ccc(Br)cn2)C1c1ccc(F)cc1 (centres undefined)	-5.5	i	0.65	2.8	x	-1.0	-8%
O=c1[nH]c(Nc2ccc3c(c2)OCCO3)nnc1Cc1ccccc1	3.9	i	0.66	-0.9	4.1	-0.9	-10%
CCOc1cc(N2CCOCC2)c(OCC)cc1NC(=O)C1=NN(c2cccc(C)c2)C(=O)CC1	4.9	i	0.72	31*	-0.9	0.4	-7%
